Bioassay records as filed in PubChem BioAssay.
HIV TAR-Tat = HIV-1 TAR-Tat binding disruption; 100,000 compounds, 0.6% hits; z-score (no concentration beside the values); HIV-1 TAR RNA, Tat peptide displacement FRET; active compounds read high;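 note: score is relative to mean and SD of negative controls; some compounds called inactive have numbers as strong as hits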
CDC25B-CDK2 inh = human CDC25B-CDK2/CyclinA binding inhibition; HTRF CDC25B-CDK2/CyclinA binding, anti-His/anti-Flag; active compounds read high; z-score (test concentration not listed); 94,000 compounds, 0.72% hits; AID 1259370;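 note: score is relative to mean and SD of negative controls; strong numbers were not always called active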
Numbers without * were called inactive; nt = not tested or not shown.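 Rule for the calls: active = z-score from 3 up in half or more of its runs; inactive = the rest.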

The line under a structure holds: HIV TAR-Tat | CDC25B-CDK2 inh
> COc1ccc(CCN2N=NC3C(=O)N(c4ccc(OC)cc4)C(=O)C32)cc1 (configuration not stated)
 : 4 | -0.8
> Cc1cc2oc(C(=O)N(Cc3ccco3)C3CCS(=O)(=O)C3)cc(=O)c2cc1C (configuration not stated)
 : 1.4 | -1.4
> O=C1CSC2=NCN(c3ccc(Br)cc3)CN12
 : 3.1 | -1.3
> O=c1c2ccc(O)cc2oc2cc(O)ccc12
 : nt | -0.73
> COc1ccc2ccccc2c1C(O)c1nccn1C (configuration not stated)
 : -0.23 | -1.1
> Cc1ccc(CNC(=O)c2cc(S(=O)(=O)N3CCCCC3)c[nH]2)o1
 : 1.2 | nt
> COCCNC(=O)c1cnc2ccccc2n1
 : nt | -0.23
> COc1ccc(CC(=O)n2nc(-c3ccc(F)cc3)cc2SC)cc1OC
 : nt | -2.6
> COc1cc(NC(=O)C2=CSCCO2)c(Cl)cc1C(=O)NCC1CCCO1 (configuration not stated)
 : 1.4 | nt
> NCCc1nnc(SCc2c(F)cccc2Cl)o1
 : 0.74 | -1.5
> C=CCn1c(SCc2ccc(C(=O)OC)cc2)nc2sc(C)c(C)c2c1=O
 : -0.81 | -1.8
> NS(=O)(=O)c1ccccc1NC(=O)c1c(O)c2cccc3c2n(c1=O)CC3
 : nt | -2.8
> CCOC(=O)c1c(N)sc2c(N)cccc12
 : -6.8 | 5.5
> Cc1ccccc1CN1c2ccccc2-c2nc(SCC(N)=O)ncc2S1(=O)=O
 : -0.1 | nt
> O=C(CSc1nnc(-c2ccncc2)n1Cc1ccccc1)Nc1nnc(-c2ccco2)s1
 : nt | -1.8
> Cc1cccn2cc(-c3cccc(NS(=O)(=O)c4ccc(Br)cc4)c3)nc12
 : 1 | -0.17
> CCOc1cccc(=O)c2c(C)n(-c3ccc(OC)cc3)c(C)c12
 : -3.4 | 1.2
> CCOC(=O)C1CCCN(c2c(OCC)c(=O)c2=O)C1 (configuration not stated)
 : 1.1 | nt
> COCCN[C@H]1CS(=O)(=O)C[C@@H]1S(=O)(=O)c1ccccc1
 : 0.38 | 1.2
> O=C1CC(c2cccc(F)c2F)c2ccc3ccccc3c2N1 (configuration not stated)
 : -0.03 | -0.86
> CC1(C)CC(=O)C2=C(C1)Nc1nc3ccccc3n1C2c1cccc(F)c1Br (configuration not stated)
 : nt | -0.17
> Cn1cc(C(=O)N2CCN(c3ccccc3)CC2)c(=O)c2cc(S(=O)(=O)N3CCOCC3)ccc21
 : -3.5 | 0.88
> N#CC(C#N)=CNNc1ncnc2sccc12
 : nt | -0.46
> CCc1nn2c(=O)c(S(=O)(=O)Nc3ccc(OC)c(Cl)c3)c(C)nc2s1
 : 0.81 | -0.49
> O=C(Nc1cccc(C(F)(F)F)c1)c1cccnc1N1CCCCC1
 : nt | -0.4
> CC(C)CC(NC(=O)c1ccco1)C(=O)O (configuration not stated)
 : 1.1 | -1.4
> Cc1cc(C)c2c(=O)cc(C(=O)Nc3c(C(=O)Nc4ccccc4)oc4ccccc34)oc2c1
 : -0.14 | -1.8
> COc1cc(NC(=O)CSc2nnc3c4c5c(sc4ncn23)CCCC5)cc(OC)c1
 : -1.2 | -0.59
> CCOC(=O)c1ccc(N2CCOCC2)c(NS(=O)(=O)c2ccc(F)cc2)c1
 : nt | -1.9
> Cc1cc(N2CCN(c3ccccc3)CC2)n2nc(C)c(-c3ccc(F)cc3)c2n1
 : -0.27 | -1.4
> COC(=O)CC1C=CS(=O)(=O)C1 (configuration not stated)
 : nt | -1.4
> C(=C\c1ccccc1)/Cn1c(CN2CCOCC2)nc2ccccc21
 : 0.31 | 0.05
> C/C(=N\Nc1cc(-c2ccccc2)nc(-c2ccc(Br)cc2)n1)c1c(F)c(F)c(F)c(F)c1F
 : nt | -1.5
> CN(C(=O)Nc1noc2c1COc1ccccc1-2)C1CCCCC1
 : 2.6 | nt
> Cc1cc(C)c(NC(=O)CSc2nc(=O)n(CCN(C)C)c3c2CCC3)c(C)c1
 : 1.4 | nt
> Cn1c(=O)c(=O)n(CC(=O)NCCN2CCCC2)c2ccccc21
 : 0.43 | nt
> Cc1nn(C)c(C)c1CNC(=O)c1cc2c(-c3cccs3)nn(-c3ccccc3)c2n1C
 : 0.33 | nt
> CCN1CCN(c2oc(-c3ccc(COc4ccc(Cl)cc4)o3)nc2C#N)CC1
 : -0.47 | 0.47
> Cc1nn(-c2ccccc2)c(-n2cccc2)c1C(=O)Nc1c(F)cc(F)cc1Br
 : -0.64 | -0.47
> COC(=O)C1=C(OC(C)=O)c2ccccc2S(=O)(=O)N1C
 : 0.48 | -0.31
> CC1CCN(c2ncc3c(n2)CCN(Cc2cc(F)cc(F)c2)C3)CC1
 : -2.4 | nt
> Cc1ccc(Cl)cc1N1CCN(S(=O)(=O)c2cccc3nonc23)CC1
 : -1.5 | -2.7
> Cc1nn2cnnc2c(C)c1CCC(=O)Nc1ccc2c(c1)OCCO2
 : -0.79 | nt
> CCOC(=O)CCCn1c(=O)c2cccn2c2ccc(F)cc21
 : 1.2 | -0.54
> COCCN1C(=O)C(=O)/C(=C(/O)c2ccccc2)C1c1ccccc1 (configuration not stated)
 : nt | -1.7

Additional entries:
compound	HIV TAR-Tat	CDC25B-CDK2 inh
Cn1c(=O)c2c(-c3ccccc3Cl)n(-c3ccc(O)cc3)cc2n(C)c1=O	-1.2	-2
N#Cc1nc(-c2ccc(COc3ccc(Cl)cc3)o2)oc1NCc1ccccc1	-0.27	-0.83
Cc1cc(C(F)(F)F)nn1CC(=O)Nc1ccc2nc3n(c(=O)c2c1)CCCCC3	nt	-0.24
COc1cc(Nc2ncnc3onc(-c4cccc(Cl)c4)c23)cc(OC)c1	0.66	nt
CCOCCCNc1nc2c(S(=O)(=O)c3ccc(Cl)cc3)nnn2c2ccccc12	-1.4	-1.1
Cc1csc(NC(=O)C2CCN(S(=O)(=O)c3cn(C)c(C)n3)CC2)n1	0.69	nt
CC1CCN(S(=O)(=O)N2CCCC(C(=O)N3CCN(C)CC3)C2)CC1 (configuration not stated)	1.5	nt
CCCCN(C)C(=O)Cn1nc(C)n2c(cc3sccc32)c1=O	0.34	-0.54
O=c1[nH]c(-c2cc(Br)ccc2O)nc2c1Cc1c(ccc3ccccc13)O2	1.5	-0.66
CCN(C1=NC2CS(=O)(=O)CC2S1)c1cccc(OC)c1 (configuration not stated)	1.5	-1.4
Cc1cc(C)cc(NC(=O)N2CCN(c3cc(N4CCN(C)CC4)nc(C)n3)CC2)c1	0.55	-1
COc1cc(C)c(C(C)C)cc1S(=O)(=O)n1ccnc1C(C)C	2.8	0.17
CC(C)(C)C(=O)/C=C1\NC(=O)CS1	nt	-2.8
CCOC(=O)C(Sc1nnc(-c2c[nH]c3ccccc23)n1CCOC)C(C)=O (configuration not stated)	nt	-0.15
CC1=Nc2cc(C(=O)NCc3ccc4c(c3)OCO4)ccc2Sc2ccccc21	0.91	-2
CCCc1c(C(=O)OCC)cnn1-c1ncc(C(=O)OC)c(C(F)(F)F)n1	nt	-2

Whole records, looked up by structure. Screens in order: HIV TAR-Tat, CDC25B-CDK2 inh
Results for `CC1=Nc2cc(C(=O)NCc3ccc4c(c3)OCO4)ccc2Sc2ccccc21` → 0.91, -2
Results for `CC(C)(C)C(=O)/C=C1\NC(=O)CS1` → nt, -2.8
Results for `COc1cc(C)c(C(C)C)cc1S(=O)(=O)n1ccnc1C(C)C` → 2.8, 0.17
Results for `O=c1[nH]c(-c2cc(Br)ccc2O)nc2c1Cc1c(ccc3ccccc13)O2` → 1.5, -0.66
Results for `CCCc1c(C(=O)OCC)cnn1-c1ncc(C(=O)OC)c(C(F)(F)F)n1` → nt, -2

(cont.)
compound	HIV TAR-Tat	CDC25B-CDK2 inh
CNC(=O)c1ccc(N2CCCS2(=O)=O)cc1	0.81	nt
O=C(CCCc1nc(-c2ccco2)no1)NCc1ccccn1	0.76	-0.66
Cc1nn(C(=O)C(C)(C)C)c(C)c1S(=O)(=O)N1CCc2ccccc2C1	0.72	nt
COc1cnc(CSc2nnnn2C)cc1OCC(=O)Nc1nc(C)cs1	1.3	nt
Cc1ccc2c(c1)sc(/C=C1\Sc3ccccc3N1CCO)[n+]2C	3.5	-0.9
CCNS(=O)(=O)c1cc2c3c(c1)CCN3C(=O)CC2	0.85	nt
O=C(CSc1ccccc1[N+](=O)[O-])NNC(=O)c1sc2ccccc2c1Cl	nt	-1.5
CCOC(=O)c1c(C)[nH]c(C)c1S(=O)(=O)Nc1cc(C)cc(C)c1	0.38	nt
CNC(=O)c1cc2cc3ccc(Cl)cc3nc2o1	-7.1	nt
Cc1cc(C(=O)N2CCN(C(=O)c3ccco3)CC2)on1	0.88	0.39
c1ccc2oc(-c3nn4c(Cn5cnc6ccccc65)nnc4s3)cc2c1	1.1	-1.2
COc1ccc(OC)c(NC(=O)CN2N=NC3C(=O)N(c4ccc(F)c(Cl)c4)C(=O)C32)c1 (configuration not stated)	0.71	nt
COc1ccc(OC)c(Nc2nnc(Cc3cccnc3)c3ccccc23)c1	2.3	-1.9
CCC(=O)N1CCc2cc(S(=O)(=O)CCC(=O)Nc3ccc(Br)cc3F)ccc21	0.14	nt
Cc1cc(N2CCN(C)CC2)nc2ccc(NC(=O)NC3CCCC3)cc12	1.8	nt
COc1ccc2nc(N3C(=O)C(O)=C(C(=O)c4cc5ccccc5o4)C3c3ccc(C)o3)sc2c1 (configuration not stated)	-1.4	-1
Cc1c(C(=O)N2CCOCC2)oc2ccc(S(=O)(=O)N3CCCC3)cc12	nt	0.88
CC1CC(C)CN(c2ncc3c(n2)CC(c2ccc(F)cc2)CC3=O)C1 (configuration not stated)	0.85	-1.6
COC(=O)c1cc(S(=O)(=O)N2CC=C(c3ccccc3)CC2)cn1C	1.9	-1.8
Cc1nn(CCCC(=O)NCCCOC(C)C)c(=O)c2c1sc1ccccc12	3.2	-1.5
CC1=C(C(=O)OC2CCCCC2)C(c2ccc(C)o2)C2=C(CC(c3ccccc3)CC2=O)N1 (configuration not stated)	0.7	-0.98
O=C(O)c1ccc(S(=O)(=O)N2CCOCC2)o1	0.58	-1.8
COc1ccc(-n2cnc3cc(NCc4ccc(Br)cc4)ccc32)cc1	nt	-0.86
Cc1ccc(C2c3c(oc4ccc(Cl)cc4c3=O)C(=O)N2CCCN2CCOCC2)o1 (configuration not stated)	-0.07	nt
Cn1cnc(S(=O)(=O)Nc2ccc(CN3CCCCC3)cc2)c1	1.6	nt
CCOC(=O)c1cnc2c(C(=O)OC)c[nH]n2c1=O	0.95	-0.51
COc1ccc(C2=C(C)C(=NCCc3cccs3)NS2(=O)=O)cc1	1.4	-1.4
Cc1ccc2[nH]c3c(c2c1)CCCCC3	nt	-2.1
CC(C)c1nnc(NC(=O)c2cc(=O)c3cc(Cl)ccc3o2)s1	-1.6	-1.3
COc1ccc2cc3cc(C(=O)N4CCC5(CC4)OCCO5)oc3nc2c1	nt	0.09
O=C(c1ccc2noc(-c3ccc(F)cc3)c2c1)N1CCN(C(=O)c2ccco2)CC1	1.4	nt
COc1nc2ccccc2cc1-c1noc(-c2cccs2)n1	1.2	-1.9
OC(C#CC1(O)CCCCC1)c1cccs1 (configuration not stated)	nt	-1.4
O=c1ccc(-c2ccc(S(=O)(=O)N3CCOc4ccccc43)s2)n[nH]1	1.6	nt
CCC1=C(O)C(C)(C)C(c2ccc(Cl)cc2)OC1=O (configuration not stated)	nt	0.72
CCc1nnc(NC(=O)C2C3C=CC(O3)C2C(=O)O)s1 (configuration not stated)	nt	-0.86
O=C(CCS(=O)(=O)c1ccc2c(c1)CCN2C(=O)C1CC1)NC1CCCc2ccccc21 (configuration not stated)	1.5	nt
Cc1cc(C)nc(SC2CC(=O)N(c3ccc(Cl)cc3)C2=O)n1 (configuration not stated)	0.04	-1.8
CCN(C(=O)CN1C(=O)N(c2ccccc2)S(=O)(=O)c2ccccc21)c1ccccc1	2.3	nt
CCOC(=O)C1=C(C)Nc2nnnn2C1c1ccc(OC)c(OC)c1 (configuration not stated)	-1.8	-1.6
O=C(c1ccccc1Br)N(Cc1ccco1)Cc1ccccc1F	-0.78	0.17
O=C(CN1C(C(=O)c2ccccc2)=C(N2CCCCC2)c2ccccc2S1(=O)=O)c1ccccc1	-1.1	-0.76
O=C(NC1CCCCC1)c1ccc(N2CCCS2(=O)=O)cc1	0.89	nt
Cc1oc(C(C)(C)C)cc1C(=O)NCc1csc2ccc(Cl)cc12	nt	-1.2
O=C(Nc1ncc(Cc2ccc(Br)cc2)s1)c1cc2ccccc2c(=O)s1	1.1	0.99
O=S(=O)(c1ccccc1)c1nnn2c1nc(NCc1ccccc1Cl)c1sccc12	-0.59	nt
O=C(CSc1nc2ccc(NC(=O)c3cccs3)cc2s1)Nc1nccs1	0.27	-0.96
CCn1c(NCc2cc(Br)ccc2O)nc2ccccc21	0.68	0.19
CC(C)Sc1nc2c(cnn2-c2ccc(F)cc2)c(=O)[nH]1	nt	0.2
CCCS(=O)(=O)c1nc(S(=O)(=O)c2ccc(C)cc2)c(NC(C)CC)s1 (configuration not stated)	-1.6	-2
O=C(CSc1nc2cc(Cl)c(Cl)cc2[nH]1)c1ccc2c(c1)OCO2	nt	-0.76
COCCn1c2c(c(=O)[nH]c1=O)C(c1cccc(Cl)c1)C1=C(N2)c2ccccc2C1=O (configuration not stated)	0.56	1.3
CCCSc1ncc(Cl)c(C(=O)N(Cc2cccs2)C2CCS(=O)(=O)C2)n1 (configuration not stated)	0.51	-1.2
Cc1sc2nc(CS(=O)(=O)c3ccccc3)[nH]c(=O)c2c1C	0.26	-0.62
